PGK inhibitor = inhibitors of T. brucei phosphoglycerate kinase | actives 0.043% (n = 380,000) | Potency, µM (series often up to 57.5 µM), inactives show top-dose activity change, negative = inhibition, most hits filed as inhibitors | PGK/GAPDH coupled, Kinase-Glo luminescence, 60 min; note: potency is the fitted concentration of half-maximal effect; nearly all actives have a fitted effect of over 60% in size
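Luminescent ATP detection (Kinase-Glo Plus) follows a 60-minute room-temperature incubation, with wells lacking PGK as controls. Buffer: 100 mM TEA (pH 7.6), 5 mM MgCl2, 0.01% Tween-20. Coupling enzyme GAPDH (100 nM final) supplies unstable 1,3-BPG in-well.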
PI4K2A inh = PI4K2A (human) kinase inhibition. Q9BTU6. purified PI4K2A, ADP-Glo luminescence, 1 h; stronger effect = lower value. activity change, negative = inhibition, % at 76.9 µM. actives 0.13% (n = 420,000); in the data active = activity change below about -50%; inconclusive = mostly about -30% to -49%;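 note: -100% = wells without enzyme as full effect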
Target sequence (Q9BTU6 whole entry, looked up): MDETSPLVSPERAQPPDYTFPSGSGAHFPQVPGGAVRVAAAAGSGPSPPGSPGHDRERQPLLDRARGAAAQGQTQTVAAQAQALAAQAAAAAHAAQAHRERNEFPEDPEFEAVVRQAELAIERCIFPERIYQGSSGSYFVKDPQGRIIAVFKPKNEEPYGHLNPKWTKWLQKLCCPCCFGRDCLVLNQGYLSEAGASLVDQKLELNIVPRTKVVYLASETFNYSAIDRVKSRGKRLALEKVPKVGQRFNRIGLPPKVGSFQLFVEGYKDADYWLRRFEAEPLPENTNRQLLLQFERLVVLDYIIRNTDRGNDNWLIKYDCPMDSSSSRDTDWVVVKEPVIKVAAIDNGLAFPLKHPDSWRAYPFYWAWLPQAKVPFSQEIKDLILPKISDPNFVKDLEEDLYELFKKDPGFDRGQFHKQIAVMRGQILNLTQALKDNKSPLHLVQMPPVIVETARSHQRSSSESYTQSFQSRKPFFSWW
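In this quantitative HTS, ADP production by PI4K2A was quantified luminescently after 1 h at ambient temperature; 100 microM adenosine served as plate-quality control.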
Pin1 inhibitor = human Pin1 inhibition; actives 0.009% (n = 390,000); Pin1 FP peptide displacement, HiFluor488, 10 min; Potency, µM (highest dose often 115 µM), inactives show at the top dose activity, negative = inhibition, most hits filed as inhibitors; active = well fitted inhibition curve with a large enough effect in the polarisation, with a control signal flat, not every such curve was filed as active; inconclusive = small, poorly fitted or top-dose-only effect, or effect the other way, or a change in a side signal; inactive = no such curve, though single readings can be large or run the other way; the % refers to the polarisation; note: potency is the fitted concentration of half-maximal effect
Target sequence (Q13526 whole entry, looked up): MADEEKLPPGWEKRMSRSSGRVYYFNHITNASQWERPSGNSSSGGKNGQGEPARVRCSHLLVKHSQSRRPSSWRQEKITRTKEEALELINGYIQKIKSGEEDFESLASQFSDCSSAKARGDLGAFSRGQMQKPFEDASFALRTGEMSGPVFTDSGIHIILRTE
GLS inhibitor = blocks human kidney-isoform glutaminase activity; GLS enzymatic activity, qHTS titration; AID 624170; actives 0.21% (n = 410,000); Potency, µM (series often up to 45.5 µM), without a hit: at the top dose activity change, negative = inhibition, usual class: inhibitors; note: potency is the fitted concentration of half-maximal effect
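Two-point fluorescence kinetic (t0, 30 min RT) for hKGA; glutamate detected via glutamate oxidase–HRP–Amplex Red. Substrate: 1 mM L-glutamine solution; buffer 45 mM KH2PO4, pH 8.2.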
POLH inh = blocks human DNA polymerase eta activity | Potency, µM (series often up to 114 µM), for the others: at the top dose activity change, negative = inhibition, usual class: inhibitors | actives 1.2% (n = 390,000) | Q9Y253 | recombinant Pol eta, fluorescent DNA replication assay; note: potency is the fitted concentration of half-maximal effect
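Pol eta at 10 nM preincubated with compounds 15 min at room temperature; reaction started with fluorescent substrate (50 nM final) and read kinetically at 0 and 10 min.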
* marks the source's active call; other numbers are inactive results; i = inactive; u = inconclusive; x = no result given; & = joins results of further samples. Unless noted, calls come from the whole dose curve; as a rule, active = well fitted curve in the direction sought with a large enough effect; inconclusive = small, poorly fitted or top-dose-only effect, or another doubt; inactive = no such curve, though single readings can be large; an effect the other way counts as inactive or inconclusive. Unless noted, % is set by controls: 0 for no effect and ±100 for the full control effect. These rows are one share of the data; the hit share may differ from the screen's.

item | PI4K2A inh | PGK inhibitor | POLH inh | Pin1 inhibitor | GLS inhibitor | SMILES
1 | 1 | -1% | -13% | 0% | 1% | COc1ccc(OC)c(CN2CCCC(C(=O)N3CCCCC3)C2)c1 (stereo unspecified)
2 | -1 | 5% | -18% | 1% | 1% | CC(C(=O)N1CCc2ccccc21)N1CCN(Cc2ccc(Cl)cc2)CC1 (stereo unspecified)
3 | -1 | x | x | x | -6% | NCCCC(O)(P(=O)(O)O)P(=O)(O)O
4 | 4 | i | -9% | -2% | -9% | Cc1c(N=C2SCC(=O)N2/N=C/c2ccccc2)c(=O)n(-c2ccccc2)n1C
5 | -10 | -6% | -22% | -11% | 4% | O=C(O)c1ccc(CSc2ccccn2)cc1
6 | 7 | 8% | 2% | -9% | 10% | O=C(c1cccs1)N1CCN(Cc2ccncc2)CC1
7 | 5 | -1% | -4% | -8% | 9% | CCC(C)c1ccc(OCCN2CCCC2)cc1 (stereo unspecified)
8 | -8 | i | -12% | -2% | -2% | C=CCSc1n[nH]c(-c2ccccc2)n1

Next compounds follow.
item | PI4K2A inh | PGK inhibitor | POLH inh | Pin1 inhibitor | GLS inhibitor | SMILES
9 | -2 | -4% | -6% | u | 2% | CCc1ccc(NCc2ccc(OC)c(Cn3ccnc3)c2)cc1
10 | -20 | -3% | u | -30% | 0% | O=C(O)C1CSC(c2ccc3c(c2)OCO3)N1 (stereo unspecified)
11 | 19 | -2% | -17% | -3% | 4% | CC(C)(C)c1cc(CN(CCO)CCO)cc(C(C)(C)C)c1O
12 | -3 | -9% | -27% | 28% | 28% | CCN(CC)c1ccc(/C=N/NC(=O)CN2CCCc3ccccc32)cc1
13 | -1 | -2% | -19% | 5% | 3% | Cc1c(N=Cc2cccnc2)c(=O)n(-c2ccccc2)n1C
14 | 8 | -2% | -21% | -2% | -2% | CC(C)c1nn2c(=O)cc(COC(=O)c3ccc(NC(=O)CCc4ccccc4)cc3)nc2s1
15 | -3 | -4% | -8% | 0% | -13% | O=C(CCN1C(=O)C2(OCCO2)c2ccccc21)c1ccccc1
16 | 41 | -8% | -13% | -7% | 6% | Cc1cccc2c1N(CCOc1ccc(C(C)(C)C)cc1)C(=O)C2=O

Later entries
item | PI4K2A inh | PGK inhibitor | POLH inh | Pin1 inhibitor | GLS inhibitor | SMILES
17 | 5&-2&-1 | -3% | -12% | 0% | -2%&-3% | Cc1cnc(C(=O)NCCc2ccc(S(=O)(=O)NC(=O)NC3CCCCC3)cc2)cn1
18 | 9 | 10% | 0% | -8% | -2% | CCOC(=O)N1CCN(CC(=O)N2c3ccccc3CC2C)CC1 (stereo unspecified)
19 | -20 | -2% | -10% | 2% | 6% | Clc1ccc(CSc2ncn[nH]2)cc1
20 | 2 | -6% | -24% | 5% | -16% | CCn1c(N)c(C(=O)NCc2ccc3c(c2)OCO3)sc1=S
21 | -2 | -2% | -13% | 2% | 9% | Cc1cc(C)n(-c2nnc(N3CCN(c4ccccc4)CC3)nn2)n1
22 | -1 | -6% | -2% | 1% | 16% | CC(=O)C1=C(O)C(=O)N(CCC(=O)O)C1c1cccc(F)c1 (stereo unspecified)
23 | -4 | 4% | -4% | 2% | u | COCCNC(=S)Nc1cc(S(=O)(=O)N2CCOCC2)ccc1N1CCCCC1
24 | 17 | -1% | -10% | u | 9% | Cc1ccccc1OCCCN1C(=O)C(=O)c2cccc(C)c21

New compounds follow:
item | PI4K2A inh | PGK inhibitor | POLH inh | Pin1 inhibitor | GLS inhibitor | SMILES
25 | -1 | 3% | -22% | -5% | -10% | CCOC(=O)c1c(C)nc2c(c1C)c(=O)oc1ccccc12
26 | -1 | x | -20% | -14% | 5% | O=C(C1CCCN(Cc2ccc(Br)cc2)C1)N1CCCCC1 (stereo unspecified)
27 | -3 | -5% | u | -7% | -3% | COc1ccc(C(=O)CSc2n[nH]c(C)n2)cc1[N+](=O)[O-]
28 | -2 | i | -5% | 0% | -3% | Cc1cc(N2CCOCC2)n2nc(-c3cccc(F)c3)cc2n1
29 | -2 | 5% | -13% | u | u | Cc1ccc(S(=O)(=O)Nc2cccnc2)cc1
30 | -5 | -6% | 0% | u | 7% | NC(=O)c1sc(=S)n(-c2ccc(Br)cc2)c1N
31 | 2 | i | -5% | -1% | 0% | CCn1c(Cc2ccccc2)nnc1SCC(=O)OC(C)C
32 | -2 | -9% | u | 1% | 9% | Cc1ccccc1NC(=O)c1c2c(nc3ccccc13)CCC2

From compound 8 up to 29, copied from above:
item | PI4K2A inh | PGK inhibitor | POLH inh | Pin1 inhibitor | GLS inhibitor | SMILES
8 | -8 | i | -12% | -2% | -2% | C=CCSc1n[nH]c(-c2ccccc2)n1
9 | -2 | -4% | -6% | u | 2% | CCc1ccc(NCc2ccc(OC)c(Cn3ccnc3)c2)cc1
10 | -20 | -3% | u | -30% | 0% | O=C(O)C1CSC(c2ccc3c(c2)OCO3)N1 (stereo unspecified)
11 | 19 | -2% | -17% | -3% | 4% | CC(C)(C)c1cc(CN(CCO)CCO)cc(C(C)(C)C)c1O
12 | -3 | -9% | -27% | 28% | 28% | CCN(CC)c1ccc(/C=N/NC(=O)CN2CCCc3ccccc32)cc1
13 | -1 | -2% | -19% | 5% | 3% | Cc1c(N=Cc2cccnc2)c(=O)n(-c2ccccc2)n1C
14 | 8 | -2% | -21% | -2% | -2% | CC(C)c1nn2c(=O)cc(COC(=O)c3ccc(NC(=O)CCc4ccccc4)cc3)nc2s1
15 | -3 | -4% | -8% | 0% | -13% | O=C(CCN1C(=O)C2(OCCO2)c2ccccc21)c1ccccc1
16 | 41 | -8% | -13% | -7% | 6% | Cc1cccc2c1N(CCOc1ccc(C(C)(C)C)cc1)C(=O)C2=O
17 | 5&-2&-1 | -3% | -12% | 0% | -2%&-3% | Cc1cnc(C(=O)NCCc2ccc(S(=O)(=O)NC(=O)NC3CCCCC3)cc2)cn1
18 | 9 | 10% | 0% | -8% | -2% | CCOC(=O)N1CCN(CC(=O)N2c3ccccc3CC2C)CC1 (stereo unspecified)
19 | -20 | -2% | -10% | 2% | 6% | Clc1ccc(CSc2ncn[nH]2)cc1
20 | 2 | -6% | -24% | 5% | -16% | CCn1c(N)c(C(=O)NCc2ccc3c(c2)OCO3)sc1=S
21 | -2 | -2% | -13% | 2% | 9% | Cc1cc(C)n(-c2nnc(N3CCN(c4ccccc4)CC3)nn2)n1
22 | -1 | -6% | -2% | 1% | 16% | CC(=O)C1=C(O)C(=O)N(CCC(=O)O)C1c1cccc(F)c1 (stereo unspecified)
23 | -4 | 4% | -4% | 2% | u | COCCNC(=S)Nc1cc(S(=O)(=O)N2CCOCC2)ccc1N1CCCCC1
24 | 17 | -1% | -10% | u | 9% | Cc1ccccc1OCCCN1C(=O)C(=O)c2cccc(C)c21
25 | -1 | 3% | -22% | -5% | -10% | CCOC(=O)c1c(C)nc2c(c1C)c(=O)oc1ccccc12
26 | -1 | x | -20% | -14% | 5% | O=C(C1CCCN(Cc2ccc(Br)cc2)C1)N1CCCCC1 (stereo unspecified)
27 | -3 | -5% | u | -7% | -3% | COc1ccc(C(=O)CSc2n[nH]c(C)n2)cc1[N+](=O)[O-]
28 | -2 | i | -5% | 0% | -3% | Cc1cc(N2CCOCC2)n2nc(-c3cccc(F)c3)cc2n1
29 | -2 | 5% | -13% | u | u | Cc1ccc(S(=O)(=O)Nc2cccnc2)cc1

(further entries)
item | PI4K2A inh | PGK inhibitor | POLH inh | Pin1 inhibitor | GLS inhibitor | SMILES
33 | -11 | 1% | -2% | -2% | -23% | O=C(Nc1nnc(COc2ccc(Cl)cc2)s1)C1CCCO1 (stereo unspecified)
34 | 5 | 5% | -18% | 1% | 1% | CN(C)S(=O)(=O)c1cccc(C(=O)Nc2ccc(S(=O)(=O)N3CCCC3)cc2)c1
35 | 33 | -7% | -12% | 1% | 0% | Cc1cccc2c1N(CCOc1ccccc1Cl)C(=O)C2=O
36 | 7 | -2% | -18% | -8% | 0% | Cc1ccc(OCCCCN2CCCC(C)C2)c([N+](=O)[O-])c1 (stereo unspecified)
37 | -3 | -10% | 6% | 6% | -5% | COc1ccc2cc(C(C)C(=O)O)ccc2c1 (stereo unspecified)
38 | -5 | -2% | -23% | 3% | 2% | COc1ccc(-n2c(-c3ccc(F)cc3)cnc2SCC(=O)NCc2ccco2)cc1
39 | -3&-2 | 3% | -15% | -10% | 2%&-17% | O=C1CN(/N=C/c2ccc([N+](=O)[O-])o2)C(=O)N1
40 | 3 | 0% | -9% | 7% | -4% | COc1cccc(Nc2sc(C(=O)c3ccc(Cl)cc3)c(N)c2C(=O)NCc2ccc(C)cc2)c1
